Screening results as filed in PubChem.
eIF4H FP inh – human eIF4H binding inhibitors, primary screen, translation initiation inhibitor project, biochemical, uHTS, fluorescence polarization | Eukaryotic translation initiation factor 4H (Homo sapiens), Q15056 | AID 2012, 2009 | eIF4H fluorescence polarization binding assay | inhibition, % at 35 µM | hit rate 0.94% among 290,000;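 active means 50% or more with normal probe brightness, or confirmed in later tests; about a fifth of its hits are not listed in these tables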;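 further: calls also rest on retests at 20 µM and on dose response follow-up; 0% = protein and probe with vehicle and 100% = probe without protein; strong numbers were not always called active; many hits fall short of the cut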
Env fusion inh – inhibitors of HIV-1 Env-driven cell-cell fusion, primary screen, HeLa-JRFL effector, CEM21 target cells, luciferase. AID 651610, 2012. inhibition, % at 12.3 µM. hit rate 1.1% among 360,000;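 active means mean replicate inhibition score of at least 50 and every replicate individually at or above 50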;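 further: 0% = plate neutral controls and 100% = maraviroc near 300 nM; one replicate is shown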
MT1-MMP act inh – blockers of MT1-MMP proenzyme processing, primary screen, HT1080 RFP-PRO-GFP cells, GFP/RFP fluorescence; GFP/RFP ratio fluorescence, overnight; percent of plate control window, DMSO zero; GFP/RFP ratio change, % at 20 µM; hit rate 0.061% among 360,000; AID 651647, 2012;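 active means GFP/RFP ratio change of at least 30% with cell ATP level not reduced by more than half and red fluorescence within 50% of control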; further: strong numbers were not always called active
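Material: RFP-PRO-GFP reporter HT1080 cells. Dosing: single-point 20 µM compound, 1% DMSO. Controls: DMSO and RFP-L50D-GFP cell wells. Timing: cells overnight before dosing, compound overnight, 37 °C, 5% CO2. Measure: GFP/RFP fluorescence ratio.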
UUG fidelity – modulators of yeast start codon fidelity, primary screen, whole organism, S. cerevisiae, single point, plate reader; S. cerevisiae UUG-firefly luciferase reporter, luminescence/redox ratio; activity score, % at 18.7 µM; hit rate 0.13% among 350,000; AID 602363, 2012;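 active means replicate mean at a twofold rise or more, about +100% in these data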;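 further: firefly luciferase made from a UUG start codon reports start codon fidelity; reporter light over untreated wells divided by growth signal over untreated wells; some hits fall short of that in this replicate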
CSC inhib – cancer stem cell viability inhibitors, primary screen, luminescence. inhibition, % at 7.5 µM. hit rate 1.1% among 300,000. AID 2717, 2010. cancer stem cell-like cells viability;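 active means mean at 75% or more and at least half the replicates too; tested in HMLE shEcad cells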;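 further: 0% = median of negative and 100% = median of positive control wells; the first replicate is given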
PABP polyA inh – PABP poly(A) RNA binding inhibitors, primary screen, biochemical, fluorescence polarization, uHTS; Polyadenylate-binding protein 1 (Homo sapiens), P11940; hit rate 1% among 290,000; inhibition, % at 35 µM; AID 2014, 2009;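 active means 50% or more with normal probe brightness, or confirmed in later tests; about a fifth of its hits are not listed in these tables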;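 further: calls also rest on retests at 20 µM and on dose response follow-up; controls were probe without protein and protein plus probe with vehicle; some compounds called inactive have numbers as strong as hits; many hits fall short of the cut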
Target sequence (P11940 whole entry, looked up): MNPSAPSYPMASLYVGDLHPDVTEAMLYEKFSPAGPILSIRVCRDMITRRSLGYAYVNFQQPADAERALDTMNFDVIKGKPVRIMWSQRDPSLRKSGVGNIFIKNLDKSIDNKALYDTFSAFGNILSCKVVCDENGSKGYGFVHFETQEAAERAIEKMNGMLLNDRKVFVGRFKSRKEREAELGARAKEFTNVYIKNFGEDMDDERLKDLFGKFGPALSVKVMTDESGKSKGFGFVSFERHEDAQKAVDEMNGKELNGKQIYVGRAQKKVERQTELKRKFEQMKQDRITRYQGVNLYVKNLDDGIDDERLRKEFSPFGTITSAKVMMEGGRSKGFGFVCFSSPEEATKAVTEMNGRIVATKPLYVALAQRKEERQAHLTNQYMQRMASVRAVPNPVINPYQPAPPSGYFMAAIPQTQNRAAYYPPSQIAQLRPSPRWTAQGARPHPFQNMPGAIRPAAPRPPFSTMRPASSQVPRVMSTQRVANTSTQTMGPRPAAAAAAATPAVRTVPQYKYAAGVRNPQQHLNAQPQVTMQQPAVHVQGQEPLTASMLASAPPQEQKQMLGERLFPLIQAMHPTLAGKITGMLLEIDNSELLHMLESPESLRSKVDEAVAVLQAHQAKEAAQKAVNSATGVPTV
Rce1 inh – yeast Rce1p protease inhibitors, primary screen, biochemical, fluorescence, cell-free homogeneous; AID 2563, 2010; yeast membranes, quenched prenylated peptide cleavage fluorescence; CAAX prenyl protease 2 (Saccharomyces cerevisiae (strain ATCC 204508 / S288c)), Q03530; hit rate 0.27% among 290,000; calls only;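 active means fall in fluorescence gain of 50% or more versus controls, with final raw signal at or below 3038400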;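 further: plate controls were neutral control wells for no effect and wells lacking membranes for full effect; tested at 10 µM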
Target sequence (Q03530 whole entry, looked up): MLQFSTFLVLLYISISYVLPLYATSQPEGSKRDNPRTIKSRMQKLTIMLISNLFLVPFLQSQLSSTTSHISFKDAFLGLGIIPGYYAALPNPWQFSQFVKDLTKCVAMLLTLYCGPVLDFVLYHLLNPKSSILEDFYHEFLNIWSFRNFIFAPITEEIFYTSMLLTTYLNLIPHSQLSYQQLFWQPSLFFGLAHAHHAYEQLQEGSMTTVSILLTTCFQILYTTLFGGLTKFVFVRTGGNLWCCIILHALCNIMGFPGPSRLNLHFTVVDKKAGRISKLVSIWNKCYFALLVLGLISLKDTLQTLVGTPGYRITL
eIF4H FP inh retest – also measured in eIF4H FP inh; calls as there; inhibition, %; compound at 20 µM; confirmation average;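 mean of two retest wells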
PABP polyA inh retest – further read-out of PABP polyA inh, marked with its call; inhibition, %; compound at 20 µM; confirmation repeats;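 mean of two retest wells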
MT1-MMP act inh RFP – recorded beside MT1-MMP act inh, whose call it bears; RFP signal change, %; measured here: RFP expression control read;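 0 = vehicle wells; hits needed this value within 50% of zero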
* hit, by the source's call; i = inactive; . = not tested or not shown. An excerpt; count on the stated rates, not on these rows.

SMILES	eIF4H FP inh	Env fusion inh	MT1-MMP act inh	MT1-MMP act inh RFP	UUG fidelity	CSC inhib	PABP polyA inh	Rce1 inh	others
CCOC(=O)C1C(C)=CC(=O)CC1c1ccco1 (centres undefined)	7	.	-4	-2	5	-12	-5	i
O=C(NCCc1ccccc1F)C1CCCN(c2nc3ccccc3s2)C1 (centres undefined)	1	3	-1	-3	-26	.	-10	i
CC(=O)Nc1cccc(NC(=O)C2CC(=O)N(CCc3ccc(F)cc3)C2)c1 (centres undefined)	2	22	2	2	-11	-10	1	i
COc1ccc(OC)c(/C=N/NC(=O)CC(=O)NC2CCCCC2)c1	1	-2	-1	0	-40	-13	4	i
O=c1c2ccccc2sn1-c1ccc(Cl)cc1Cl	.	35	3	-21	-42	.	.	.
O=C(NCC(=O)N(c1ccc2c(c1)OCO2)C(C(=O)NC1CCCC1)c1ccncc1)c1ccco1 (centres undefined)	9	-45	-4	1	-21	.	16	i
CC(C)C(Nc1ncnc2c1oc1ccccc12)C(=O)O (centres undefined)	-10	-12	4	5	.	4	-5	i
CC1=C(C(=O)OCc2ccc(C)cc2)C(c2ccc(O)c([N+](=O)[O-])c2)NC(=O)N1 (centres undefined)	-1	29	2	-5	.	-9	13	i
Cc1cc(Cl)ccc1OCCCC(=O)Nc1cccc(-n2cnnn2)c1	0	7	0	-6	-7	17	-14	i
Cc1nnc(SCC(=O)Nc2ccc(C(N)=O)cc2)n1-c1ccccc1	1	1	1	-1	-19	-10	8	i
Cc1ccsc1C(=O)Nc1ccc(F)c([N+](=O)[O-])c1	-4	.	-1	2	-50	.	8	i
CN(C)S(=O)(=O)c1cc(C(=O)Nc2ccccc2C(=O)NC2CC2)ccc1Cl	.	-10	3	3	-5	.	.	.
Cc1ccc(/C=C/C(=O)N2CC(=O)Nc3ccccc32)o1	5	3	-2	8	.	-2	15	i
O=C(Nc1ccc(Oc2cccnc2)cc1)C1CCN(Cc2ccc(F)cc2)CC1	7	30	8	-7	2	10	-8	i
Cn1nc(C(F)(F)F)cc1-c1ccc(/C=C(\C#N)C(=O)c2ccccc2)s1	102	-15	-2	3	-29	4	19*	.	eIF4H FP inh retest=-6;PABP polyA inh retest=95*
CCOCCCNC(=S)Nc1ccc2nc(N3CCN(CC)CC3)cc(C)c2c1	-5	-11	-2	2	-18	28	4	i
O=C(c1ccc(CS(=O)Cc2ccc(Cl)cc2)o1)N1CCN(c2ccccn2)CC1 (centres undefined)	-5	21	-1	-3	12	-5	-10	i
CCn1c(COc2ccc(=O)n(-c3ccccc3)n2)nnc1SC	4	0	-1	0	.	-9	2	i
O=C(Nc1ccc(S(=O)(=O)N2CCCC2)cc1)c1cc(=O)c2ccccc2o1	0	-15	-1	-5	-15	2	22	i
CCOC(=O)C(=CNc1cc(C)nn1-c1ccccc1)C(=O)OCC	2	1	2	-3	-7	-9	-2	i
Cc1ccc(CNC(=O)CNS(=O)(=O)c2ccc3nc(C)sc3c2)cc1	2	-2	1	4	.	-9	-11	i
Cc1ccc(-c2nc(CS(=O)(=O)CC(=O)NCCCN3CCN(C)CC3)c(C)o2)cc1	-7	-16	-2	5	-24	-10	3	i
COCCOC(=O)C1=C(C)NC(=O)NC1c1ccc(OC(=O)c2ccco2)c(OC)c1 (centres undefined)	1	.	2	2	-11	-11	-6	i
O=C(NCCC(=O)N1CCCC(C(F)(F)F)C1)c1ccccc1Cl (centres undefined)	4	3	-1	2	-16	-9	20	i
CCOc1ccc(CCNC(=O)C2CCC(=O)N2CCc2ccccc2)cc1OCC (centres undefined)	-4	14	5	3	-4	.	8	i
CCc1cc(Cn2nc(-c3ccccc3)cc2C(=O)NCc2cccc(Br)c2)on1	.	6	1	-1	-13	27	.	.
O=C(COC(=O)Cc1ccccc1F)Nc1ccc2c(c1)OCCO2	-5	1	-3	1	.	-6	-7	i
Cc1nn(C)cc1/C=C/C(=O)c1cccs1	-2	-30	6	-1	-16	-8	7	i
CC(=O)N1C(C(=O)O)CSC1c1cccc(C)c1 (centres undefined)	-2	.	2	2	.	1	2	i
CCCCN1C(=O)C(NC(C)=O)c2cc(Br)ccc21 (centres undefined)	-1	.	3	5	-9	-3	0	i

Random excerpt: 5 records from the list
SMILES	eIF4H FP inh	Env fusion inh	MT1-MMP act inh	MT1-MMP act inh RFP	UUG fidelity	CSC inhib	PABP polyA inh	Rce1 inh	others
CCOC(=O)C(=CNc1cc(C)nn1-c1ccccc1)C(=O)OCC	2	1	2	-3	-7	-9	-2	i
COCCOC(=O)C1=C(C)NC(=O)NC1c1ccc(OC(=O)c2ccco2)c(OC)c1 (centres undefined)	1	.	2	2	-11	-11	-6	i
CCn1c(COc2ccc(=O)n(-c3ccccc3)n2)nnc1SC	4	0	-1	0	.	-9	2	i
CCOc1ccc(CCNC(=O)C2CCC(=O)N2CCc2ccccc2)cc1OCC (centres undefined)	-4	14	5	3	-4	.	8	i
CCCCN1C(=O)C(NC(C)=O)c2cc(Br)ccc21 (centres undefined)	-1	.	3	5	-9	-3	0	i

(listing goes on)
SMILES	eIF4H FP inh	Env fusion inh	MT1-MMP act inh	MT1-MMP act inh RFP	UUG fidelity	CSC inhib	PABP polyA inh	Rce1 inh	others
O=C(Nc1cccc(OC(F)(F)F)c1)C1Cc2c(-c3ccc(Cl)cc3)ccnc2O1 (centres undefined)	.	26	3	-4	-1	.	.	.
CCN(CC)C(=O)c1nc[nH]c1C(=O)N1CCC(C)CC1	.	-8	1	5	-10	.	.	.
CC1(C)CC2CC(C)(CN2S(=O)(=O)c2cccc(N)c2)C1 (centres undefined)	-6	-39	3	3	-12	-5	-3	i
Nc1nncn1C(=O)CCc1ccccc1	1	-84	1	5	-11	-10	-4	i
CCCCC(=O)Nc1cccc(C(C)O)c1 (centres undefined)	-2	-1	.	.	.	.	-7	i
CCCCC(c1nnnn1C1CCCC1)N1CCN(C(=O)c2ccco2)CC1 (centres undefined)	-5	.	1	5	0	-4	20	i
Cc1sc2ccccc2[n+]1CC(=O)O	3	-15	3	7	-14	2	-2	i
CN(Cc1ccccc1)CC(O)COc1ccc(CNCc2cc3ccccc3s2)cc1 (centres undefined)	-2	11	4	-6	-11	36	15	i
COc1ccc(N(C(=O)c2snc(C(N)=O)c2N)C(C(=O)NCc2ccccc2)c2ccc(O)cc2)cc1 (centres undefined)	2	18	0	-2	-1	.	-3	i
O=C(Nc1ccc(NC(=O)c2ccccc2F)cn1)c1ccco1	-2	14	-3	-2	-46	4	12	i
O=C(CNC(=O)c1ccccc1)Nc1cccc(C(F)(F)F)c1	0	.	1	0	-7	1	-7	i
COc1ccc(-c2cnc3c(NC(C)=O)cc(-c4cccc(NS(C)(=O)=O)c4)cn23)cc1OC	.	42	4	1	-3	.	.	.
COc1cc(S(=O)(=O)N2CCN(c3ccccc3)CC2)ccc1F	-7	-9	0	-3	.	8	-7	i
CCN1CCCC1CNC(=O)CN1C(=O)COc2ccc(C)cc21 (centres undefined)	-4	6	-2	6	-3	-13	-16	i
C[C@@H](C(=O)NCc1ccccc1)N1C(=O)C2CC=CCC2C1=O (some centres undefined)	-13	.	3	-1	-3	3	2	i
CN(c1ccc([N+](=O)[O-])cc1C(N)=O)C1CCCCC1	0	18	0	-4	.	-6	8	i
S=C1CSc2ccccc2N1	3	-5	-1	3	.	-1	15	i
CCOC(=O)c1cn(CC(=O)Nc2ccc(C)cc2)nn1	-5	13	1	2	-24	-8	-2	i
CC(=O)c1c(C)[nH]c(C(=O)O)c1C	-8	4	-1	-1	.	-17	-2	i
COC(=O)c1ccc(CN2CCC(CO)(Cc3cccc(OC)c3)CC2)cc1	2	2	1	-3	.	-5	-12	i
O=C(COc1cccc(-n2cnnn2)c1)Nc1ccccc1	2	.	2	0	-9	-3	0	i
O=c1c2ccccc2sn1-c1ccccc1	-4	-60	0	-2	195*	24	9	i
CCN(CC)CCCNc1nc2cc(OC)c(OC)cc2c2nc(-c3cccnc3)nn12	-7	-209	-13	-7	-8	14	0	i
CC(C)CNC(=O)C1CCCN(C(=O)NCc2ccccc2)C1 (centres undefined)	-11	11	-1	0	.	-5	-1	i
C[C@@H]1CN([C@H](C)CO)C(=O)c2c(c3ccccc3n2C)-c2ccccc2CO[C@H]1CN(C)S(=O)(=O)c1cn(C)cn1	.	-30	0	4	2	.	.	.
O=C(O)c1cc(-c2c[nH]c3ccccc23)nc2cc3ccccc3cc12	-8	-22	-6	2	-24	-9	12	i
O=C(N/N=C\c1ccc(COc2ccc([N+](=O)[O-])cc2)o1)c1ccc(Cl)cc1	-12	.	1	-8	-11	11	-10	i
CCOC(=O)Cc1csc(NC(=O)c2c(-c3c(Cl)cccc3Cl)noc2C)n1	-10	-47	-1	0	6	4	0	i
O=C(Nc1cccc(S(=O)(=O)N2CCOCC2)c1)c1ccccc1[N+](=O)[O-]	.	3	-1	0	-15	-2	.	.
CN(C)S(=O)(=O)c1ccc(C(=O)NCc2nnc(SCC(=O)N3CCCC3)o2)cc1	0	-8	-2	1	-15	-5	2	i
Nc1cc(-c2ccccc2)nn1Cc1ccccc1	-9	-4	10	-2	.	-2	1	.
Cc1cc(N2CCC(C)CC2)nc(-n2nc(C)cc2C)n1	-9	.	6	-1	-41	-9	-6	i
COc1ccccc1N1CCN(CCCN2C(=O)C3CCCCN3C2=O)CC1 (centres undefined)	.	7	-1	2	8	.	.	.
COC(=O)c1c(C(=O)OC)c(-c2ccc(C)cc2)n2c1CS(=O)C2 (centres undefined)	-1	.	-2	3	-1	-11	-5	i
Cc1ccc(-c2nn3nnnc3c3ccccc23)cc1C	-9	-40	3	-7	-11	2	2	i
CCOc1ccc(S(=O)(=O)NCCC(=O)NC2CCCCC2)cc1	.	0	5	6	-10	.	.	i
Clc1ccc(CN2CCN(/N=C/c3cccnc3)CC2)cc1	-6	-9	8	5	.	4	5	i
CCN1CCN(c2sc(S(=O)(=O)CC)nc2S(=O)(=O)c2ccc(Cl)cc2)CC1	.	9	-1	0	-10	.	.	.
COC(=O)c1sccc1NC(=O)c1ccc(C)cc1	3	1	-7	0	-11	-2	-5	i
O=C(Nc1ccncc1)Nc1ccc(F)cc1F	-4	.	-13	-6	1	1	-6	i
CCC(C)NC(=O)c1n[nH]c(=O)c2ccccc12 (centres undefined)	.	-30	-3	1	-14	-10	.	i
Cc1cccc(NC(=O)NCC(c2cccnc2)N2CCOCC2)c1 (centres undefined)	-3	-13	7	5	-10	19	-7	i
Cc1sc2ncnc(N3CCN(S(=O)(=O)c4ccc(C(C)(C)C)cc4)CC3)c2c1C	.	15	-1	-25	-18	6	.	.
O=C(Nn1c(=S)[nH]c2ccccc2c1=O)c1ccncc1	4	.	2	4	-15	.	3	i
Cc1ccnc(NS(=O)(=O)c2ccc(NC(=O)c3ccc(S(=O)(=O)N4CCOCC4)cc3)cc2)n1	4	5	1	2	.	-3	13	i
CC(C)C(C(=O)NCC1CCCO1)N(Cc1cccs1)C(=O)CNS(=O)(=O)c1ccccc1 (centres undefined)	7	23	1	6	.	-20	2	i
